Screening data deposited in PubChem by Vanderbilt University.
GIRK2 act: activators of human GIRK2 potassium channels; calls only for hits at 25 µM; HEK293-GIRK2 thallium flux, Thallos fluorescence; actives 0.05% (n = 63,000); G protein-activated inward rectifier potassium channel 2 (Homo sapiens), P48051;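 active means among the strongest 0.2% of first-round signals and kept after retests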;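 further: first round at about 10 µM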
Target sequence (P48051 whole entry, looked up): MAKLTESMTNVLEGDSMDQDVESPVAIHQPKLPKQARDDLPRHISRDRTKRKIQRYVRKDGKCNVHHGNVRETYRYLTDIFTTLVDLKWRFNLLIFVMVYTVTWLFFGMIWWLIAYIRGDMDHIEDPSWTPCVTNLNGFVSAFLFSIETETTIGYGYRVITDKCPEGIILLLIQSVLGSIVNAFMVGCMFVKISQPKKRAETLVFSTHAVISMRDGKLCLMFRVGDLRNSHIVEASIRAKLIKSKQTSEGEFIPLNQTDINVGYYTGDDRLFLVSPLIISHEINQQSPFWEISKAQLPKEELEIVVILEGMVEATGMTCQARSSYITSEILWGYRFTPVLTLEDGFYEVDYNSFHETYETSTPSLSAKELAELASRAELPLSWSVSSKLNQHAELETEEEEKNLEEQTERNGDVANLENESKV
Calls only; i = inactive.

GIRK2 act,SMILES
i,COc1cccc(CSc2nc(CC(=O)NCCc3c[nH]c4ccccc34)cc(=O)[nH]2)c1
i,COc1cccc(CNC(=O)Cn2nc3c4cc(-c5cc(C)ccc5C)nn4ccn3c2=O)c1OC
i,Cc1ccc(CNC(=O)Cn2cnc3c([nH]c4ccc(Br)cc43)c2=O)cc1
i,Cc1nc(-c2ccccc2F)sc1CNC(=O)NC(C)(C)C
i,COc1cc(OC)cc(C(=O)N(CCCn2ccnc2)c2nc3cc(C)cc(C)c3s2)c1
i,O=c1c(NCc2cccs2)nccn1Cc1ccc(Cl)cc1
i,COC(=O)C(C)Oc1ccc2c(c1)O/C(=C\c1cccc(OC)c1OC)C2=O (centres undefined)
i,CSCC(C)(O)CNC(=O)C(=O)NCC(F)(F)F (centres undefined)
i,CC(C)Oc1ccc(C(=O)N(C(=O)N2CCCCC2)c2ccccc2)cc1
i,Cc1noc(-c2ccc(NC(=O)C3(c4ccc(Cl)cc4)CCCC3)cc2)n1
i,O=C(c1cccc(NS(=O)(=O)c2ccccc2F)c1)N1CCOCC1
i,Cc1ccc(C)c(S(=O)(=O)Nc2ccc(S(=O)(=O)N3CCCCC3)cc2)c1
i,CCc1nc2sc(C(=O)OC)c(N)c2c2c1CCCC2
i,O=C(Cn1cc(S(=O)(=O)N2CCCC2)ccc1=O)Nc1cccc(Cl)c1
i,COc1cc([C@@H]2c3cc4c(cc3[C@@H](O[C@@H]3O[C@@H]5CO[C@@H](C)O[C@H]5[C@H](O)[C@H]3O)[C@H]3COC(=O)[C@H]23)OCO4)cc(OC)c1O
i,CN(CC(=O)N1CCOCC1)S(=O)(=O)c1ccc(C(=O)NCc2cccnc2)o1
i,CN(C)c1nc(N(C)C)nc(N(C)C)n1
i,CCCc1nnsc1C(=O)N1CCN(CC(O)C2CC2)CC1 (centres undefined)
i,COc1ccc(-c2cc3c(SCC(=O)NC4CCCCC4)nccn3n2)cc1
i,COC(=O)c1ccc(C2CCN(C(=O)C3CC3)CC2)cc1
i,CC(=O)Nc1ccc(S(=O)(=O)C(CC(=O)c2ccccc2)c2ccccc2)cc1 (centres undefined)
i,CN(c1ccccc1)S(=O)(=O)c1ccc(C(=O)N2CCc3ccccc32)cc1
i,Cc1ccc(CNC(=O)Cn2nnc(C(=O)Nc3ccc(Br)cc3)c2N)cc1
i,CCOC(=O)N1CCN(c2c([N+](=O)[O-])c(=O)n(C)c3ccccc23)CC1
i,Cc1ccc2cccc(C(=O)O)c2n1
i,O=C(Nc1ccc(N2CCCN(C(=O)C3CC3)CC2)cc1)c1cnccn1
i,C=C(C)Cn1c(=O)c2c(nc3n2C(C)C(C)=NN3CC(=O)OCC)n(C)c1=O (centres undefined)
i,COc1ccccc1NC(=O)NNC(=O)c1cccn(Cc2cccc(Cl)c2)c1=O
i,CCOC(=O)C(C#N)c1nc2ccccc2nc1N1CCCC1 (centres undefined)
i,Cc1ccc(S(=O)(=O)N(Cc2ccsc2)Cc2ccco2)cc1C
i,NS(=O)(=O)c1ccc(NC(=O)CC2Sc3ccc(C(F)(F)F)cc3NC2=O)cc1 (centres undefined)
i,Cc1ccc(NC(=O)c2cn(Cc3ccc(NC(=O)C4CCCCC4)cc3)cn2)c(C)c1
i,COc1ccc(C)cc1NC(=O)CSc1nc2cc(-c3ccccc3)sc2c(=O)n1C
i,COc1ccccc1N1CCN(CC(=O)Nc2cccc3nsnc23)C1=O
i,CC(C)CNCC(O)COc1cccc2ccccc12 (centres undefined)
i,CN(C)C(=O)c1ccc(S(=O)(=O)N2CCOCC2)o1
i,Cc1noc(CNC(=O)NC2CCCCC2)n1
i,Cc1ccc(Nc2c(C)cccc2Cl)c(CC(=O)O)c1
i,COc1ccccc1-c1cnc(N)nc1-c1ccc(OCc2ccccc2C)cc1O
i,CCC(=O)Nc1sc2c(c1-c1nc3ccccc3s1)CCN(C(C)=O)C2
i,CN1CCN(c2oc(-c3ccccc3)nc2S(=O)(=O)c2ccc(F)cc2)CC1
i,O=S(=O)(c1ccc2c(c1)OCCCO2)N1CCCCCC1
i,COc1cccc(-c2cc(C(=O)NCCc3ccncc3)n(C)n2)c1
i,Cc1cc(C)n(-c2ccc(=O)n(CCNC(=O)c3ccccc3Nc3ccccc3)n2)n1
i,CC(O)(CNS(=O)(=O)c1ccccc1Cl)c1ccc(-c2ccccc2)cc1 (centres undefined)
i,COc1ccc(Nc2c(C#N)cnc3ccc(F)cc23)c(OC)c1
i,Cc1ccccc1-c1ccc(N2CCN(S(=O)(=O)CCc3ccccc3)CC2)nn1
i,CC(C)CNC(=O)C1CCN(c2ccc(-c3ccco3)nn2)CC1
i,O=C1CCSCC(C(=O)Nc2cccc(OC(F)F)c2)N1 (centres undefined)
i,CC1Oc2ccccc2OC1C(=O)Nc1cccc(C(F)(F)F)c1 (centres undefined)
i,c1ccc(-n2ccnc2SCc2nc(-c3ccc4c(c3)OCO4)no2)cc1
i,N#Cc1ccc(C(=O)NCCc2ccoc2)cc1
i,COc1ccc(CCn2c(C)c(C)n3c4c(=O)[nH]c(=O)n(C)c4nc23)cc1OC
i,Cc1ccc(S(=O)(=O)c2nc(S(=O)(=O)C3CCCCC3)sc2NCC2CCCO2)cc1 (centres undefined)
i,CSc1ccccc1C(=O)N1CCC(CSc2ccccn2)CC1
i,O=C(NCCc1csc(-n2cccn2)n1)c1cc(C2CC2)on1
i,O=C(CCN1C(=O)CCC1=O)Nc1cccc(C(F)(F)F)c1
i,CC(=O)N1N=C(c2cccc(O)c2)CC1c1ccccc1 (centres undefined)
i,CC(C)Cn1c(=O)c2c(nc3n2CC(C)CN3c2ccc(Oc3ccccc3)cc2)n(C)c1=O (centres undefined)
i,COCCN1N=C(C)Cn2c1nc1c2c(=O)n(Cc2ccccc2)c(=O)n1C

(list continues)
GIRK2 act,SMILES
i,COc1cccc(NC(=O)Nc2cc(N3CCC(C)CC3)ncn2)c1OC
i,Cc1cc(C(=O)Nc2ccc(N3CCCC3=O)c(C)c2)no1
i,COc1ccc(C(O)=C2C(=O)C(=O)N(c3cc(C)on3)C2c2ccc([N+](=O)[O-])cc2)cc1 (centres undefined)
i,Cc1nc(-n2nnc(C(=O)NCc3ccc4c(c3)OCO4)c2C)sc1C
i,O=C(NCCn1nc(-n2ccnc2)ccc1=O)C1(c2cccs2)CCCC1
i,CCCn1c(=N)c(C(=O)NCCOC)cc2c(=O)n3cccc(C)c3nc21
i,COc1ccc(S(=O)(=O)N(C)c2ccsc2C(=O)NCc2ccc3c(c2)OCO3)cc1
i,CC(C)(CO)NC(=O)Cc1ccc(NC(=O)C2CC=CCC2)cc1 (centres undefined)
i,Cc1nc(-c2cccc(NC(=O)c3ccc(Cn4ccnc4)cc3)c2)cs1
i,c1ccc(-n2nnnc2N2CCNCC2)cc1
i,CCOCCn1c(-n2nc(C)cc2C)nc2c1c(=O)n(Cc1ccc(C)cc1)c(=O)n2C
i,Cc1ccc(-n2nnc(C(=O)Nc3ccc(C)c(F)c3)c2-c2ccccn2)cc1
i,COc1cccc(-c2nc(CSc3nc4ccccc4c(=O)n3-c3ccccc3)c(C)o2)c1OC
i,COCCN(Cc1ccoc1)C(=O)c1cccc(Br)c1
i,CCn1c(SCC(=O)NCc2ccco2)nc2c(-c3ccc(C)cc3)csc2c1=O
i,CSc1nc2ccccc2n1Cc1nnc(-c2ccccc2)o1
i,CCCOC(=O)c1ccc(NC(=O)c2c(-c3ccccc3Cl)noc2C)cc1
i,COC(=O)c1sccc1S(=O)(=O)N1CC(Oc2nc3c(C(F)(F)F)cccc3s2)C1
i,O=C(Nc1ccccc1-c1ccc(=O)[nH]n1)c1ccc2noc(-c3ccccc3)c2c1
i,O=C(Nc1cnoc1)c1cc(=O)c2ccccc2o1
i,COc1ccccc1C(=O)N1CCN(c2nc(N3CCCC3)nc(-n3ccnc3)n2)CC1
i,Cn1nc(N2CCC(C(=O)NCc3csc4ncnn34)CC2)ccc1=O
i,Cc1ccc2nc(N3CC(C(=O)Nc4cccc(OC(F)F)c4)C3)sc2c1
i,Cc1nn(C)cc1S(=O)(=O)Nc1ccc(OC(F)(F)F)cc1
i,CC1Oc2ccccc2CN(c2ccc(S(C)(=O)=O)cc2)C1=O (centres undefined)
i,COc1ccc(NC(=O)c2cnc3c(c(C)nn3-c3ccccc3)c2Cl)cc1
i,COc1ccccc1NC(=O)C1C(C)Nc2ncnn2C1c1cccs1 (centres undefined)
i,COc1ccccc1-n1ncc2c(C)nnc(SCC(=O)Nc3cccc(C)c3C)c21
i,Cc1ccc(CNC(=O)c2ccc3nnc(SCC(=O)Nc4ccc(C)c(C)c4)n3c2)cc1
i,COC1(CNC(=O)c2nc3ccccc3s2)CCSC1 (centres undefined)
i,Cc1nn(C2CCS(=O)(=O)C2)c(C)c1N1CCN(C(=O)c2ccc3c(c2)OCO3)CC1 (centres undefined)
i,O=C(CCc1csc(NC(=O)c2cccs2)n1)Nc1ccc2c(c1)OCCO2
i,CCC(=O)Nc1ccc(-n2nnc(C(=O)NC3CCCC3)n2)cc1
i,Cc1ccc(S(=O)(=O)c2cn(C)c3cc(N4CCN(C)CC4)c(F)cc3c2=O)cc1
i,O=C(Nc1nnc(-c2ccc3c(c2)CCCC3)o1)c1cccc(N2C(=O)CCC2=O)c1
i,Cc1cc(C(=O)NCc2cc(-c3ccncc3)n(C)n2)no1
i,COc1ccc(Cl)cc1N1CC(C(=O)NC2(c3nc(-c4ccncc4)no3)CCCCC2)CC1=O (centres undefined)
i,O=C(CCCSc1ccc(NC(=O)C2CC2)nn1)Nc1cnc2ccccc2c1
i,COc1ccccc1-n1cnnc1CN1CCN(C(=O)c2cc3ccccc3[nH]2)CC1
i,Cc1ccc(C)c(N2CCN(C(=O)c3cn(-c4ccc(Cl)cc4)nn3)CC2)c1
i,CCc1ccc(-c2cc3c(=O)[nH]nc(SCC(=O)NCc4ccc(SC)cc4)n3n2)cc1
i,CC(C)(C)c1cc(C(F)(F)F)c(C#N)c(SCCCC(=O)Nc2nccs2)n1
i,O=C(NCCCS(=O)(=O)N1CCN(c2ccccc2)CC1)c1ccc(F)c(F)c1
i,Cc1cc(NC(=O)CSc2nnc(N3CCN(C(=O)c4c(F)cccc4Cl)CC3)s2)no1
i,C=CCn1c(N)c(C(=O)NCCCOC(C)C)c2nc3ccccc3nc21
i,CCOC(=O)N1CCN(C(=O)Cc2noc3ccccc23)CC1
i,COC(=O)c1sccc1S(=O)(=O)N1CCC(CSc2ccccn2)CC1
i,Cn1c(C2CCC(CNC(=O)Cn3cnc4ccccc4c3=O)CC2)nc2ccccc21 (centres undefined)
i,O=C(NCC1CCN(c2ccccn2)CC1)Oc1ccccc1
i,O=C(Nc1oc2ccccc2c(=O)c1-c1ccc2c(c1)OCO2)c1cccc([N+](=O)[O-])c1
i,Cn1nc(CNC(=O)c2cc(Br)ccc2Cl)cc1-c1ccncc1
i,COc1ccc(Cl)cc1C(=O)N1CCN(c2cc(-n3nc(C)cc3C)nc(C)n2)CC1
i,COc1ccc(NC(=O)c2sccc2S(=O)(=O)N2CCN(c3cccc(Cl)c3)CC2)cc1
i,O=C(N1CCOC(Cc2ccccc2)C1)C1(c2cccs2)CCCC1 (centres undefined)
i,C#CCn1c(=NC(C)=O)sc2cccc(F)c21
i,COc1cccc(CC(=O)N2CC(c3nc(C)no3)C2)c1
i,CCn1c(SCC(=O)NCc2ccccc2OC)nc2c(-c3ccc(C)cc3)csc2c1=O
i,COc1ccc(CNC(=O)Cn2ccn3nc(-c4ccccc4)cc3c2=O)cc1OC
i,COc1ccc(SCC2CCN(C(=O)NCc3cccs3)CC2)cc1
i,CCCCOc1ccc(NC(=O)N2CC3(COC(C)(C)OC3)C2)cc1

Additional results follow:
GIRK2 act,SMILES
i,Cc1cc(C)c(NS(=O)(=O)c2c(C)cc(C)c(N(C)S(C)(=O)=O)c2C)c(C)c1
i,COc1ccc(NC(=O)Cn2nc(N3CCCCCC3)c3ccccc3c2=O)cc1Cl
i,Cc1cn2c(nc3c2c(=O)n(Cc2ccccc2C)c(=O)n3C)[nH]1
i,CCOC(=O)N1CCN(/C=C(\C#N)S(=O)(=O)c2ccc(Cl)cc2)CC1
i,O=C(NCc1cccc2ccccc12)N(CCc1cccs1)Cc1ccco1
i,COc1ccc(Cl)cc1NC(=O)Nc1ccc(Cl)c(N2CCCS2(=O)=O)c1
i,CCc1ccccc1Sc1nccn2c(=O)n(CC(=O)Nc3ccc(OC)cc3)nc12
i,CC(C(=O)Nc1nc(-c2ccco2)cs1)n1nc(-c2ccccc2)ccc1=O (centres undefined)
i,CCc1ccc(N2CCn3c2nc2c3c(=O)n(CC)c(=O)n2C)cc1
i,O=C(CSC1CCCC1)N1CCN(c2nc(-c3ccsc3)cs2)CC1
i,COc1cc(NC(=O)c2cc(=O)c(OCc3ccccc3)co2)cc(OC)c1OC

Structures shown so far that have a Cl atom (17):
GIRK2 act,SMILES
i,O=c1c(NCc2cccs2)nccn1Cc1ccc(Cl)cc1
i,Cc1noc(-c2ccc(NC(=O)C3(c4ccc(Cl)cc4)CCCC3)cc2)n1
i,O=C(Cn1cc(S(=O)(=O)N2CCCC2)ccc1=O)Nc1cccc(Cl)c1
i,COc1ccccc1NC(=O)NNC(=O)c1cccn(Cc2cccc(Cl)c2)c1=O
i,Cc1ccc(Nc2c(C)cccc2Cl)c(CC(=O)O)c1
i,CC(O)(CNS(=O)(=O)c1ccccc1Cl)c1ccc(-c2ccccc2)cc1 (centres undefined)
i,CCCOC(=O)c1ccc(NC(=O)c2c(-c3ccccc3Cl)noc2C)cc1
i,COc1ccc(NC(=O)c2cnc3c(c(C)nn3-c3ccccc3)c2Cl)cc1
i,COc1ccc(Cl)cc1N1CC(C(=O)NC2(c3nc(-c4ccncc4)no3)CCCCC2)CC1=O (centres undefined)
i,Cc1ccc(C)c(N2CCN(C(=O)c3cn(-c4ccc(Cl)cc4)nn3)CC2)c1
i,Cc1cc(NC(=O)CSc2nnc(N3CCN(C(=O)c4c(F)cccc4Cl)CC3)s2)no1
i,Cn1nc(CNC(=O)c2cc(Br)ccc2Cl)cc1-c1ccncc1
i,COc1ccc(Cl)cc1C(=O)N1CCN(c2cc(-n3nc(C)cc3C)nc(C)n2)CC1
i,COc1ccc(NC(=O)c2sccc2S(=O)(=O)N2CCN(c3cccc(Cl)c3)CC2)cc1
i,COc1ccc(NC(=O)Cn2nc(N3CCCCCC3)c3ccccc3c2=O)cc1Cl
i,CCOC(=O)N1CCN(/C=C(\C#N)S(=O)(=O)c2ccc(Cl)cc2)CC1
i,COc1ccc(Cl)cc1NC(=O)Nc1ccc(Cl)c(N2CCCS2(=O)=O)c1

Some of the compounds tested (hit frequency here may not be typical).
